BJeLR viability – kills HRASV12-expressing BJeLR cells; BJeLR (HRASV12) viability, CellTiter-Glo ATP luminescence, 48 h; reference of the scale not given here; 0.17% of 300,000 active; AID 1554; inhibition, % (test concentration not listed);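 active = replicate mean above 50%; inconclusive = above 50% but judged a plate artefact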;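 note: 50 nL library stock added to about 25 µL; numbers are from one replicate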
Bead autofluor – counter-screen for toxin protease inhibitors: compound fluorescence. 3.1% of 360,000 active. compound autofluorescence counterscreen, microsphere flow cytometry; hits give high values. fluorescence intensity (no concentration beside the values). AID 624483;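 active = at least 3 SD above the mean of all compounds, about 16000 in these data; inconclusive = too few beads counted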;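 note: 100 nL of 1 mM stock went into each well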
PrP 5UTR inh – suppresses PrP 5' UTR mRNA reporter expression; inhibition, % (test concentration not listed); cell-based PrP 5' UTR mRNA reporter, plate reader; 0.35% of 340,000 active;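 active = every replicate at 50% or more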;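 note: 0 = median of the neutral control wells; tested in H4 reporter cells; numbers are from one replicate; inactives centre near -14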
Mtb hypoxia rep – Mtb hypoxia fluorescent reporter inhibition; M. tuberculosis hypoxia-regulated fluorescent reporter, fluorescence; fluorescence inhibition, % (concentration not given with the values); 0.1% of 300,000 active; AID 1159583;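 active = 35 to 45% if threefold the growth effect, above 45% if 1.5-fold the growth effect; inactive = the rest, general growth blockers included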;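 note: wells of about 50 µL received 100 nL stock; 0% = vehicle wells and 100% = reference inhibitor wells; whole bacteria with a GFP reporter of the hypoxia response; strong numbers were not always called active; many hits fall short of the cut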
RN4220 kill – S. aureus RN4220 growth inhibition. OD600, 16 h. inhibition, % (concentration not given with the values). AID 1259311. 0.33% of 330,000 active;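 active = z-score of -3 or lower and OD600 up to 0.18 on both plates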;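 note: plate controls were untreated cells for no effect and reference antibiotic for full effect; stock transfer was 100 nL into about 80 µL; one replicate is shown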
ugtP null kill – compounds lethal to S. aureus RN4220 ugtP deletion mutant. OD600 growth, 16 h; some inactives read as strong as hits. growth inhibition, % (concentration not given with the values). 0.54% of 330,000 active;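 active = z-score under -3 and OD600 up to 0.15 on both plates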;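 note: plate controls were untreated wells for no effect and antibiotic for full effect; wells of about 80 µL received 100 nL stock; the first replicate is given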
Mtb hypoxia rep growth – second read-out of Mtb hypoxia rep, no call of its own (marks repeat the call); growth inhibition, %; measured here: M. tuberculosis growth (absorbance);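 0% = vehicle and 100% = reference antibiotic; read after six days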
The depositor's hits bear a star; ? = inconclusive; · = no result given; & = joins results of further samples.

Screens in order: Mtb hypoxia rep growth | PrP 5UTR inh | RN4220 kill | Mtb hypoxia rep | Bead autofluor | ugtP null kill | BJeLR viability
- O=C(O)c1ccc(N2C(=O)CC(Cc3ccccc3)C2=O)cc1 (configuration not stated)
→ 7.9 | -5.5 | -0.3 | 4.4 | 9559 | -2.5 | 11.9
- CC(=O)NC1=NN(C(C)=O)C(C)(c2ccccc2)S1 (configuration not stated)
→ 7.0 | 16.1 | 3.8 | 8.3 | 8053 | 5.5 | 15.3
- CCCCOCCCNC(=O)c1cccc(OC)c1
→ 8.7 | -14.9 | 2.9 | 7.7 | 2473 | 3.6 | -0.3
- CC1CCC(NCCNC(=O)c2ccco2)CC1 (configuration not stated)
→ 13.8 | -21.4 | 2.5 | 8.0 | 3801 | 4.3 | -8.3
- CCOC(=O)c1ccccc1NC(=O)Cn1c(-c2nonc2N)nc2ccccc21
→ 8.1 | 44.1 | 10.2 | 2.1 | 9855 | 14.1 | 30.1
- Cc1ccc(C(=O)NCCNc2ccc([N+](=O)[O-])cc2C(F)(F)F)cc1
→ 11.3 | -3.2 | 18.2 | 5.8 | 2538 | -10.9 | -10.5
- COC(=O)[C@H](C)NC(=O)Nc1cccc(C)c1
→ · | 1.3 | 2.6 | · | 2943 | -5.9 | -0.6
- Cc1nc2c(-c3ccccc3)c(C)nn2c(C)c1CCC(=O)O
→ 0.0 | -12.0 | -0.2 | 1.5 | 4881 | 9.1 | -4.9
- O=c1cc(CSc2nnc(-c3cccs3)n2Cc2ccccc2)nc2sc3ccccc3n12
→ 8.1 | 1.3 | 1.4 | 6.5 | 3865 | -14.5 | 11.8
- Cc1ccccc1-n1c(=O)cc(N2CCC3(CC2)OCCO3)[nH]c1=O
→ 0.1 | -6.6 | 2.2 | 5.2 | 6331 | 1.7 | -7.9
- CCCCC(CC)CNC(=O)/C=C/c1ccc(F)cc1 (configuration not stated)
→ 6.5 | · | -2.6 | 10.1 | · | -9.2 | 4.8
- CCN(CC)S(=O)(=O)c1ccc(C)c(NC(=S)NNC(=O)C2CC2)c1
→ 3.2 | -10.7 | 3.8 | 7.1 | 2401 | 5.1 | -4.3
- Cc1cc(OC(C)C(=O)NCCCN2CCOCC2)c2c(C)cc(=O)oc2c1 (configuration not stated)
→ -0.6 | -3.5 | 3.5 | 8.1 | 5310 | 9.8 | 16.4
- CCn1cc(C(=O)NCc2ccc(OC)cc2)c(=O)c2ccc(C)nc21
→ -1.5 | -27.6 | 3.2 | 11.8 | 4155 | 8.3 | -15.0
- CCOc1ccc(/C=N/NC(=O)c2ccc(Cn3cc([N+](=O)[O-])cn3)o2)cc1
→ · | -20.2 | · | · | 2909 | · | 11.6
- c1ccc(COCCCn2cc(-c3ccccc3)nn2)cc1
→ 9.4 | 17.0 | 6.5 | 11.5 | 4258 | -17.9 | 15.3
- COc1ccc([C@@H]2[C@@H]3C(=O)N(C(C)(C)C)C(=O)[C@@H]3[C@]3(C)C(=O)N(c4cccc(C)c4)C(=O)N23)cc1
→ · | -29.2 | · | · | 3857 | · | -2.8
- Cc1ccc(C)c(-c2csc(NC(=O)c3c(C)noc3C)n2)c1
→ -13.4 | 3.0 | 6.3 | 5.8 | ? | 10.1 | ·
- COC(CNC(=O)C1CCCN1C(=O)OCc1ccccc1)OC (configuration not stated)
→ -10.6 | -6.3 | 0.0 | 0.0 | 1935 | 6.1 | -3.3
- Cc1cc(N)n(-c2ccccc2)n1
→ · | -11.4 | -1.9 | · | 2097 | 13.3 | 2.1

Complete entries as entered above. Values in the order: Mtb hypoxia rep growth	PrP 5UTR inh	RN4220 kill	Mtb hypoxia rep	Bead autofluor	ugtP null kill	BJeLR viability
Listed for `c1ccc(COCCCn2cc(-c3ccccc3)nn2)cc1` : 9.4	17.0	6.5	11.5	4258	-17.9	15.3
Listed for `Cc1ccccc1-n1c(=O)cc(N2CCC3(CC2)OCCO3)[nH]c1=O` : 0.1	-6.6	2.2	5.2	6331	1.7	-7.9
Listed for `CC1CCC(NCCNC(=O)c2ccco2)CC1` (configuration not stated) : 13.8	-21.4	2.5	8.0	3801	4.3	-8.3

(further entries)
Screens in order: Mtb hypoxia rep growth | PrP 5UTR inh | RN4220 kill | Mtb hypoxia rep | Bead autofluor | ugtP null kill | BJeLR viability
- O=C(CN1C(=O)c2ccccc2C1=O)Nc1ccccc1N1CCOCC1
→ -2.6 | -14.7 | 3.9 | 0.3 | 6071 | 2.1 | -11.1
- Nc1nonc1-c1noc(CCCOc2ccc(Cl)cc2Cl)n1
→ 0.1 | -89.8 | -1.4 | -2.9 | 22747* | -6.7 | -18.0
- CC(C)(C)C(=O)NNC(=O)c1cnccn1
→ 15.0 | -14.3 | 0.6 | 1.5 | 5008 | 5.5 | 0.9
- CCN(C(=O)c1cc2c(=O)n3ccccc3nc2n1C)C1CCCCC1
→ 6.2 | -26.0 | -0.6 | -2.0 | 5786 | -2.5 | 6.3
- O=C(CNS(=O)(=O)c1cccs1)NCc1ccc(F)cc1
→ 11.5 | -15.6 | 2.2 | -5.9 | 2054 | 0.9 | -4.9
- COc1ccccc1-c1nc(SCc2ccccn2)n[nH]1
→ 1.0 | -38.0 | -7.7 | 7.0 | 2516 | -2.6 | -0.6
- COc1cc(OC)c(C2CC(=O)N3CN(c4ccccc4)CSC3=C2C#N)cc1OC (configuration not stated)
→ 12.2 | -32.7 | -0.7 | 3.5 | 20460* | -5.9 | 2.4
- CC(C)CC(C(=O)NCc1ccccn1)N1C(=O)c2ccccc2C1=O (configuration not stated)
→ · | -21.5 | 1.4 | · | 4584 | 4.2 | 2.0
- CS(=O)(=O)NCCOc1ccc(S(=O)(=O)N2CCCc3ccccc32)cc1
→ 5.2 | -5.4 | 6.9 | 15.2 | 10637 | 2.3 | 4.5
- COc1ccc(/C=N/N=C2/NC(=O)C(CC(=O)O)S2)cc1OCc1ccc(Cl)cc1 (configuration not stated)
→ · | -17.0 | · | · | 2025 | · | 15.1
- COc1ccc(C(CNC(=O)CNC(=O)c2ccc(F)cc2)N2CCCC2)cc1 (configuration not stated)
→ 5.3 | -7.2 | 2.3 | 8.2 | 7291 | 4.6 | ·
- CCCCC1S/C(=N/N=Cc2cccs2)NC1=O (configuration not stated)
→ -3.3 | · | 3.6 | -8.0 | · | -0.5 | ·
- COc1cccc(C=NNC(=O)C(=O)NCc2ccco2)c1OC
→ -2.9 | · | 4.1 | 7.3 | · | 5.6 | ·
- CCO[C@@H]1OC(C(N)=O)=C[C@H](c2cn(C(C)=O)c3ccccc23)[C@H]1CCCO
→ · | -20.0 | · | · | 3886 | · | 0.5
- Cc1ccc(Cl)cc1NC(=O)CC1NCCNC1=O (configuration not stated)
→ 3.5 | -12.1 | 3.5 | 4.3 | 2379 | -1.4 | -5.4
- Cc1ccc(-c2[nH]nc3c2C(c2ccsc2)C(C#N)=C(N)O3)cc1 (configuration not stated)
→ 9.7 | -30.6 | 5.8 | 18.0 | 9623 | 1.1 | 7.8
- CN1c2cccc3cccc(c23)N(C)C1(C)C
→ 17.4 | -21.7 | 0.0 | 21.2 | 3319 | -9.2 | -3.5
- Cc1ccc(-n2c(C)nnc2SCC(=O)Nc2ccccc2)cc1
→ · | -17.9 | 2.1 | · | 5217 | 3.6 | -2.1
- O=C(Nc1cc(S(=O)(=O)N2CCOCC2)ccc1N1CCOCC1)c1ccccc1F
→ 0.5 | -19.1 | 4.7 | 9.0 | 3841 | 13.4 | ·
- Cc1cc(OC(F)F)ccc1NC(=S)NCCc1ccccc1
→ -0.1 | -13.6 | 0.4 | -9.2 | 5148 | 1.2 | -0.5
- COc1ccc(Cl)cc1C(=O)NNC(=O)COC(=O)c1ccc(Br)o1
→ 10.3 | -0.8 | 1.2 | 7.7 | 4072 | 5.5 | ·
- COc1cccc(C(C(=O)NC2CCCC2)N(Cc2ccco2)C(=O)c2ccco2)c1OC (configuration not stated)
→ -0.6 | -0.7 | 2.7 | -19.8 | 3788 | -0.3 | 17.1
- COc1ccccc1N1CCN(S(=O)(=O)c2cccs2)CC1
→ -0.4 | -5.3 | 3.9 | 3.5 | 7754 | 5.5 | -9.6
- CC(C(=O)Nc1ccc(F)c(F)c1F)N(C)Cc1cccs1 (configuration not stated)
→ -2.6 | -9.3 | 0.3 | 5.0 | 5747 | 2.5 | 3.2
- CCCOc1cccc(C(=O)NCCCNC(=O)c2ccccn2)c1
→ 3.9 | 6.5 | 2.8 | 14.1 | 4873 | -0.7 | -1.7
- COC1(NS(=O)(=O)c2ccc(Br)cc2)C(C)=CC(=O)C=C1C
→ 13.8 | -30.8 | 4.9 | 10.0 | 4240 | 10.7 | -1.1
- Cc1cc(=O)[nH]c(N=N/C(=N/Nc2ccc(O)cc2)c2ccccc2)n1
→ · | -30.1 | · | · | 2640 | · | 13.6
- Cc1oc2c(CN(C)C)c(O)ccc2c(=O)c1-c1ccc2ccccc2n1
→ -1.1 | 12.6 | 3.4 | -2.9 | 10400 | 2.6 | 4.5
- Cc1ccc(N2C(=O)NC3(CCCCC3)C2=O)cc1
→ · | -23.2 | -1.1 | · | 4158 | 1.9 | -3.3
- OCCN1CCN(Cc2cccc(Oc3ccc(Cl)cc3)c2)CC1
→ 2.2 | 0.2 | 5.1 | 6.3 | 20285* | 18.2 | -3.2
- COc1ccccc1N1CCN(Cc2nnnn2CCc2ccccc2)CC1
→ · | -11.3 | 8.5 | · | 4792 | 2.7 | -4.6
- CC(=O)Nc1cccc(C(=O)OC(C)C(=O)N2CCc3ccccc32)c1 (configuration not stated)
→ -4.9 | -22.9 | 2.5 | 11.0 | ? | 7.6 | 6.1
- O=c1c2ccccc2nc(N/N=C/c2ccccc2)n1O
→ · | -12.6 | · | · | 24872* | · | 3.0
- O=c1[nH][nH]c(=O)c2cc([N+](=O)[O-])ccc12
→ -0.3&-6.4 | 2.3&-8.0 | 0.2&3.8 | -9.6&-9.2 | 3603&4221 | -1.7&9.0 | ·
- O=C(NN=Cc1cn(-c2ccccc2)nc1-c1cccs1)c1ccccc1F
→ -0.8 | · | 8.3 | -0.2 | · | 15.2 | ·
- CC(=NO)C1C(=NO)CC2C1C2(C)C (configuration not stated)
→ 3.7 | · | 2.8 | 6.8 | · | -2.0 | ·
- O=C(c1ccccc1)c1cc(F)c(N2CCOCC2)cc1Cl
→ 10.6 | -21.3 | 5.6 | 10.0 | 2830 | 14.1 | -3.6
- COc1cc(NC(=O)c2ccccc2)c(OC)cc1NC(=O)Cc1ccc(Br)cc1
→ · | -19.1 | · | · | 4083 | · | -7.7
- NP(=O)(Oc1ccccc1Cl)Oc1ccccc1Cl
→ -1.5 | -36.6 | 8.2 | 10.0 | 4653 | 7.9 | -3.8
- CCC(C)NS(=O)(=O)c1ccc(OCC(=O)Nc2ccc(F)cc2F)cc1 (configuration not stated)
→ · | -63.6 | 1.2 | · | 4556 | 3.5 | -2.7

Just ugtP null kill, Mtb hypoxia rep growth and BJeLR viability, for two of the compounds above:
Compound	ugtP null kill	Mtb hypoxia rep growth	BJeLR viability
CC(=NO)C1C(=NO)CC2C1C2(C)C (configuration not stated)	-2.0	3.7	·
O=C(c1ccccc1)c1cc(F)c(N2CCOCC2)cc1Cl	14.1	10.6	-3.6

Additional compounds follow:
Screens in order: Mtb hypoxia rep growth | PrP 5UTR inh | RN4220 kill | Mtb hypoxia rep | Bead autofluor | ugtP null kill | BJeLR viability
- CCOC(=O)c1cc(NC(=O)Nc2cc(C)ccn2)c(C)nc1C
→ 20.5 | -28.7 | 0.0 | 24.0 | 3174 | 7.2 | 9.2
- CCn1c(=O)c2sccc2n(Cc2ccc(C)cc2)c1=O
→ 6.0 | -25.1 | 5.3 | -1.9 | 3012 | 11.4 | -7.0
- CCN(CC(=O)NCCc1ccc(S(N)(=O)=O)cc1)Cc1nc2ccccc2c(=O)[nH]1
→ 2.3 | -23.8 | 1.6 | 1.3 | 4113 | 1.8 | -0.7
- CCN(CC(=O)Nc1ccc(OC)cc1)C(=O)c1ccc(N2CCCC2=O)cc1
→ 0.1 | -10.2 | 0.9 | -0.3 | 8717 | 8.5 | ·
- CC(=NNc1nncc2ccccc12)c1ccc(OCC(=O)N(C)C)cc1
→ 3.1 | · | 2.4 | -0.3 | · | -2.8 | ·
- Cc1ccc(NC2CCCN(C(=O)CCC3=NNC(=O)CC3)C2)cc1C (configuration not stated)
→ 5.4 | -0.9 | -2.1 | 11.0 | 4055 | 0.1 | 3.5
- Cc1cccc(OCC(=O)N2CCC(c3ccccc3)C2)c1 (configuration not stated)
→ -6.3 | -60.5 | 3.3 | 11.6 | 9959 | 1.1 | 0.3
- COCCNC(=S)NNC(=O)c1ccco1
→ -3.7 | -22.3 | 0.2 | 3.4 | 23531* | 5.0 | 1.9
